# Screening data deposited in PubChem BioAssay by National Center for Advancing Translational Sciences (NCATS).
# SmPrx2 inh: inhibitors of Schistosoma mansoni peroxiredoxin 2; Potency, µM; AID 448; S. mansoni Prx2 activity coupled to TGR/GSH (TGR is thioredoxin glutathione reductase), NADPH fluorescence loss, qHTS; some inactives read as strong as hits; hit rate 0.07% among 65,000; active means full or partial inhibition curve with a strong effect at the top dose; inconclusive means weaker partial or single-point curve; inactive means no accepted curve; note: series up to 57 µM; many of its hits are not listed in these tables
#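 Enzyme mix: 100 uM NADPH, 25 nM TGR, 700 uM GSH, 50 nM Prx2 in 100 mM phosphate pH 7.4, 10 mM EDTA, 0.01% Tween-20. 15 min RT with compound; NADPH/GSH added, H2O2 starts reaction; NADPH fluorescence read 8 min.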
# Anthrax LT inh: anthrax lethal toxin internalization inhibition; Cells, anthrax lethal toxin internalization, FRET ratio (460/530); Potency, µM (titrated, usually from 40 µM), for inactives: top-dose activity change, negative = inhibition, most hits filed as inhibitors; hit rate 0.67% among 70,000; active = well fitted falling ratio curve with the 530 nm signal flat; inconclusive = other ratio curves, or a change in one channel alone; inactive = flat curves in the ratio and both channels; the % refers to the ratio; note: % is set by controls: 0 for no effect and ±100 for the full control effect; nearly all actives have a fitted effect of over 50% in size; tested in ME-180 cells; beta-lactamase reporter
# * marks the source's active call; other numbers are inactive results; u = inconclusive; x = no result given; [ ] = remark or other dose. Potency is the fitted concentration of half-maximal effect.
smiles	SmPrx2 inh	Anthrax LT inh
O=C(Cn1cnnn1)OCC(=O)c1ccc(Cl)s1	>57	-6%
O=C(NCc1ccccc1)N(Cc1cc2cc3c(cc2[nH]c1=O)OCCO3)CC1CCCO1 (configuration not stated)	>57	19%
CCc1noc(C)c1C(=O)Nc1sc(C(=O)N(C)C)c(C)c1C(=O)OC	>57	8%
CCOc1ccc(NC(=O)Nc2ccc3c(c2)N(C)C(=O)CS3)cc1	>57	u
OCC1N=C(c2ccccn2)OC1c1ccccc1 (configuration not stated)	>57	10%
Cc1sc(NC(=O)CSc2nnc(-c3ccc(F)cc3)o2)c(C#N)c1C	>57	-2%
CCN(CC)c1ccc(NC(=O)c2ccc(Br)o2)cc1	x	13µM*
CCN1C(=O)[C@H]2[C@H]3[C@H](O)[C@H](O)C/C(=N/NC(=O)OCc4ccccc4)[C@@H]3CC[C@@H]2C1=O	x	4%[1.6 µM]
O=c1c(-c2cc(F)cc(F)c2)nc2cnc(N3CCOCC3)nc2n1Cc1cccs1	>57	u
C[C@H](NC(=O)OC(C)(C)C)c1nnc(SCC(=O)c2ccc(Cl)cc2)o1	>57	4%
Cn1c(Cn2c(=O)sc3ccccc32)nnc1SCc1cccnc1	>57	2%
COCC(=O)N1CCC2(CC1)CN(Cc1ccc(C#N)cc1)C2	>57	-9%
CCN(Cc1cc2cc(C)ccc2[nH]c1=O)C(=O)c1cccc(OC)c1	>57	u
Cc1ccc(-n2c(N)c(C(=O)N3CCCCC3)sc2=S)cc1	>57	-6%
CCOC(=O)N1CCC(N2C(=O)c3ccc(C(=O)NCc4ccc(F)cc4)cc3C2=O)CC1	>57	-7%
COc1cc2c(C(=O)NCc3ccccn3)cn(C)c(=O)c2cc1OC	>57	0%
CC(=O)c1cnc(Nc2nc(C)c3cc(C)ccc3n2)nc1C	>57	0%
CCCCN1C(=O)C(O)(CC(=O)c2c(C)n[nH]c2C)c2cc(Br)ccc21 (configuration not stated)	>57	-9%
Cc1nnc(NC(=O)C2CCN(c3nnnn3-c3ccccc3)CC2)s1	>57	-3%
Cc1ccc(-c2nnn(CC(=O)N(Cc3cccs3)C(C(=O)NC(C)(C)C)c3ccc(C)o3)n2)o1 (configuration not stated)	>57	-3%

# Look-ups from above.
# Entry for `CCCCN1C(=O)C(O)(CC(=O)c2c(C)n[nH]c2C)c2cc(Br)ccc21` (configuration not stated) in Anthrax LT inh: -9%
# Entry for `COCC(=O)N1CCC2(CC1)CN(Cc1ccc(C#N)cc1)C2` in SmPrx2 inh: >57
# Entry for `Cc1ccc(-c2nnn(CC(=O)N(Cc3cccs3)C(C(=O)NC(C)(C)C)c3ccc(C)o3)n2)o1` (configuration not stated) in Anthrax LT inh: -3%
# Entry for `CCN(Cc1cc2cc(C)ccc2[nH]c1=O)C(=O)c1cccc(OC)c1` in SmPrx2 inh: >57
# Entry for `Cc1ccc(-n2c(N)c(C(=O)N3CCCCC3)sc2=S)cc1` in SmPrx2 inh: >57
# Entry for `CCOC(=O)N1CCC(N2C(=O)c3ccc(C(=O)NCc4ccc(F)cc4)cc3C2=O)CC1` in SmPrx2 inh: >57

# Other results
smiles	SmPrx2 inh	Anthrax LT inh
CC(C)c1nc(SCC(=O)NCc2ccc3c(c2)OCO3)c2c(=O)n(C)c(=O)n(C)c2n1	>57	-5%
CCOC(=O)[C@]1(C(NC(=O)OC)c2ccco2)CCCC1=O (some centres not stated)	x	-13%[8 µM]
COc1cc(NC(=O)C2COc3ccccc3O2)c(OC)cc1Cl (configuration not stated)	>57	13µM*
Cc1csc(NC(=O)CCS(=O)(=O)c2ccc(Br)cc2)n1	>57	-9%
Cn1cccc1C(=O)N1CCC2(CC1)CN(C(=O)Nc1cccc(C#N)c1)C2	>57	-8%
Cc1ccc(-n2c(Cc3cccn3C)nnc2SCC(=O)N2CCc3ccccc32)cc1	>57	0%
O=C(O)c1ccc(CO)o1	x	-6%
O=C(O)C1CCCCC1C(=O)NCc1cn2ccccc2n1 (configuration not stated)	>57	4%
CC(C)[C@@H]1OC(=O)C=CC=CC=CC=CC=CC[C@@H](O)[C@H](C)[C@@H](O)C[C@H](O)C[C@H](O)C[C@H](O)C[C@H](O)C[C@H](O)C[C@H](O)C=C[C@@H]1C	>57	0%[8 µM]
CON(C)c1nc(OCCNC(=O)OCc2ccc(Cl)cc2Cl)nc(N(C)C)n1	>57	-3%
OC(Cn1ccnc1)c1ccc(Cl)cc1Cl (configuration not stated)	>57	-2%
Cc1cc2nc(C)n3c4ccccc4nc3n2n1	>57	10%
NS(=O)(=O)c1cc2c(cc1Cl)=NC(CCC(=O)O)=NS=2(=O)O	>57	-9%[8 µM]
Cc1cc(Nc2ccc(N3CCC(C)CC3)cc2)n2ncnc2n1	>57	-25%
Cc1ccc(C)c(NC(=O)CS(=O)(=O)c2c[nH]c3ccccc23)c1	>57	-11%
CCCC[P+](CCCC)(CCCC)Cc1ccc(NC(=O)[C@@H](Cc2ccc3ccccc3c2)NC(=NC2CCCCC2)NC2CCCCC2)cc1	>57	u
O=C(NC1CCCCC1)N1CCc2[nH]c3ccccc3c2C1	>57	-9%
C[C@]12CCC(=O)C=C1CC[C@@H]1[C@@H]2CC[C@@]2(C)[C@H]1CC[C@]2(C)O	x	6%
COc1cccc(CN2C(=O)CCC2(C)C(=O)NC2CCCCC2)c1 (configuration not stated)	>57	-16%
O=C(Nc1ccc(F)cc1F)N1CCN(c2ncccn2)CC1	x	5%
CCOc1ccc(N(CC(=O)Nc2nccs2)S(=O)(=O)c2c(C)noc2C)cc1	x	19%
CCOc1ccccc1NC(=O)C1CCC(CNc2c(N3CCOCC3)c(=O)c2=O)CC1 (configuration not stated)	>57	-1%
CCN(CCCNC(=O)COc1cc(=O)n(CC)c2ccccc12)Cc1ccccc1	>57	8%
C=CCSc1nnc(C)n1-c1ccc(Cl)cc1	>57	5%
CCC1CCCCN1C(=O)CSc1nc2c(cnn2-c2ccc(C)cc2)c(=O)[nH]1 (configuration not stated)	>57	4%
COc1ccc(CNC(=O)C(C#N)c2nc3ccccc3nc2N2CCCC2)cc1 (configuration not stated)	>57	u
COc1ccc(-c2nc(CSCC(=O)NCc3ccc4c(c3)OCO4)c(C)o2)cc1OC	>57	u
COc1ccc(-n2nc(C(=O)NCC(=O)NCC3CCCO3)c3ccccc3c2=O)cc1 (configuration not stated)	>57	19%
Cc1cc(C)cc(NC(=O)CCNS(=O)(=O)c2ccc3c(c2)oc(=O)n3C)c1	>57	9%
COC(=O)c1ccc(NS(=O)(=O)c2ccc3c(c2)oc(=O)n3C)cc1	>57	3%

# Continued, starting with the last 2 of the part before.
smiles	SmPrx2 inh	Anthrax LT inh
Cc1cc(C)cc(NC(=O)CCNS(=O)(=O)c2ccc3c(c2)oc(=O)n3C)c1	>57	9%
COC(=O)c1ccc(NS(=O)(=O)c2ccc3c(c2)oc(=O)n3C)cc1	>57	3%
COC(=O)C1(C)C=CC2(CCCCC2)N1C(=O)c1ccccc1 (configuration not stated)	x	-29%
Cc1ccccc1NC(=O)C1CC(Cl)=CCC1C(=O)O (configuration not stated)	x	-6%
O=C(CN1CCC(n2nnc3cc(C(F)(F)F)ccc32)CC1)Nc1ccc2c(c1)OCCO2	>57	-1%
COc1cc2nc(N3CCN(C(=O)C4CCCO4)CC3)nc(N)c2cc1OC (configuration not stated)	>57	-4%
CCC(=O)N(CCc1ccccc1C)Cc1cc2cc3c(cc2[nH]c1=O)OCO3	>57	-6%
CC(C)(C)NC(=O)C(c1ccncc1)N(C(=O)c1csnn1)C1CC1 (configuration not stated)	>57	5%
Cc1ccc(C2CC(=O)N3CN(c4ccc(Br)cc4)CSC3=C2C#N)o1 (configuration not stated)	>57	u
CCN(CC)CCN1C(=O)C(=O)/C(=C(/O)c2ccc(OCC(C)C)cc2)C1c1ccncc1 (configuration not stated)	>57	x
Oc1cccc(-c2nc3ccccc3s2)c1	>57	-11%
COCc1nnc(NC(=O)c2cccs2)s1	>57	3%
COc1cccc(C2=N/C(=C\N(C)C)C(=O)O2)c1	>57	-2%
CC(NC(=O)c1nn(C)c(=O)c2ccccc12)c1ccc(F)cc1 (configuration not stated)	>57	11%
O=C(O)CCSc1nc2ccccc2s1	>57	-1%
Cc1c(C(=O)NCCN2CCOCC2)oc2ccc(S(=O)(=O)N3CCCCCC3)cc12	>57	-3%
CC(C)NCC[C@@H](O)c1cc2ccccc2o1	>57	-10%[8 µM]
Cc1ccc(CNC(=O)C(OC(=O)c2ccco2)C(C)C)cc1 (configuration not stated)	>57	19%
Cc1cc(C)cc(N(C(=O)c2ccc3c(c2)OCO3)C2C=CS(=O)(=O)C2)c1 (configuration not stated)	>57	-5%
C/C=C/Cn1c(SC)nc2c1c(=O)[nH]c(=O)n2C	>57	0%
CCn1c(SCC(=O)N2CCN(c3ccc(F)cc3)CC2)nc2ccccc2c1=O	>57	-4%
COCCNC(=O)C(OC(=O)c1cccs1)c1ccccc1 (configuration not stated)	>57	3%
CCN1CCC(NC(=O)c2cc(OC)c(OC)cc2OC)CC1	>57	12%
COC(=O)c1ccc(-c2nn(C)c(=O)c3ccccc23)cc1	>57	-15%
O=C(CCCCCN1C(=O)c2ccccc2C1=O)NCCc1nc2ccccc2[nH]1	>57	-18%
O=C(Oc1cccnc1)c1cccc(Cl)c1	x	22%
COc1cccc(NC(=O)COC(=O)c2ccco2)c1	>57	-5%
COc1ccccc1NC(=O)CSc1nnc(-c2ccccc2)o1	>57	-1%
CNC(=O)c1ccc(N(Cc2ccccc2C)S(C)(=O)=O)cc1	>57	-2%
CCN1CCN(Cc2nc(N)nc(Nc3ccc(C)c(C)c3)n2)CC1	>57	5%
O=C(C1CCC(CNS(=O)(=O)c2cccs2)CC1)N1CCCCC1 (configuration not stated)	>57	5%
O=C(CN1C(=O)COc2ccccc21)NCCCN1CCN(Cc2ccccc2)CC1	>57	2%
O=C(NC1CCCC1)c1ccc(COCC(F)(F)F)o1	>57	-9%
Cc1ncn(C23CC4CC(CC(O)(C4)C2)C3)n1	>57	4%
COc1ccc(-c2nc(N)c3ncn([C@H]4O[C@@H](CO)[C@@H](O)[C@@H]4O)c3n2)cc1	>57	-1%[8 µM]
CCC(c1nnnn1Cc1ccco1)N(CCc1ccccc1)Cc1cc2cccc(C)c2[nH]c1=O (configuration not stated)	>57	u
COc1ccc(OC)c(CNC(=O)CCNC(=O)Cn2ccc3ccccc3c2=O)c1	>57	17%
CC12CN3CC(C)(CN(C1)C3c1cc(Br)ccc1O)C2=O (configuration not stated)	x	-1%
CCC(=O)Nc1cc(C(=O)N2CCC3(CC2)OCCO3)ccc1S(=O)(=O)c1ccc(C)cc1	>57	10%
CCOC(=O)N1CCN(Cc2nc3c(c(=O)[nH]c(=O)n3C)n2CCCc2ccccc2)CC1	>57	-13%
CN(C)P(=NC(=O)COc1ccc(Cl)cc1Cl)(N(C)C)N(C)C	>57	-9%
O=C(Nc1sc2c(c1C(=O)O)CCCC2)c1cccs1	x	9%
O=C1C=C(OCc2ccccc2)CN1	>57	u
CCC(=O)N1CCN(c2ccccc2NC(=O)Cc2ccccc2)CC1	>57	-1%
CC(Nc1cc(=O)n(C)c(=O)n1C)c1ccccc1 (configuration not stated)	>57	u
CCOC(=O)c1ccc(NC(=O)c2c(O)[nH]c(=O)[nH]c2=O)cc1	>57	-6%
CCn1c(SCC(=O)Nc2nc3c(s2)CCCC3)nc2c1c(=O)n(C)c(=O)n2C	>57	-8%
CC1(C)CC(=O)C(C(c2ccncc2)C2C(=O)CC(C)(C)CC2=O)C(=O)C1	>57	-10%
Fc1ccccc1N1CCN(Cc2c(F)cccc2F)CC1	>57	u
O=C(O)COc1ccc(S(=O)(=O)NCCc2ccccc2)cc1	>57	-3%
COc1ccc(CCn2nnnc2C(CC(C)C)N2CCN(c3ncccn3)CC2)cc1OC (configuration not stated)	>57	-7%
COCCn1c(=O)c(C)nc2cnc(N3CCOCC3)nc21	>57	-18%

# More structures:
smiles	SmPrx2 inh	Anthrax LT inh
CC(C)n1c(=O)[nH]c2ccccc21	>57	u
O=C(NCc1ccco1)C1CCCN(S(=O)(=O)c2cccc3cccnc23)C1 (configuration not stated)	>57	2%
C=CCn1c(SCc2ccc3nonc3c2)nnc1-c1cccs1	>57	5%
CCOc1ccc(N2C(=O)CC(N3CCN(c4ccccc4F)CC3)C2=O)cc1 (configuration not stated)	>57	-8%
CC(C)(C)c1nn(-c2ccccc2)c2[nH]c(=O)c(CNCc3ccco3)cc12	>57	u
Cc1ccccc1N(CC(=O)Nc1ccc(F)cc1)S(C)(=O)=O	>57	u
CCOC(=O)NCC(C#CCN(CC)CC)N(CC)CC (configuration not stated)	>57	x
O=C(Nc1nnc(CC(=O)N2CCCC2)s1)c1cnccn1	>57	0%
CN(Cc1ccccc1)c1nc2c(c(=O)[nH]c(=O)n2C)n1Cc1ccccc1Cl	>57	14%
COc1cccc(C2C(C(=O)c3cc4cccc(OC)c4o3)=C(O)C(=O)N2c2cc(C)on2)c1OC (configuration not stated)	>57	3%
O=C(NC1CCCC1)c1c[nH]c2ccc(F)cc2c1=O	>57	12%
Cc1cccc(N(C)C(=O)c2coc(=O)c3ccccc23)c1	>57	-1%
CC(C)OCCCNS(=O)(=O)c1ccc2c(c1)OCCO2	>57	6%

# A portion of the library. The share of hits here may be higher or lower than overall.
